Rab9 prom act: activates the Rab9 promoter; Huh7 Rab9 promoter-luciferase reporter, luminescence, 24 h; Potency, µM (series often up to 9.22 µM), for inactives: top-dose activation, negative = inhibition, usual class: activators; hit rate 2.8% among 320,000; note: potency is the fitted concentration of half-maximal effect; % of control where 0% means no effect; nearly all actives have a fitted effect of over 60% in size
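Stable Rab9-luc Huh7, 1500 cells/well, 2 h settle; cmpd in DMSO, 24 h, 37 °C/5% CO2; luciferase reagent 10 min RT; luminescence.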
ELG1 repair inh: ELG1-dependent DNA repair inhibition | HEK293T ELG1-luciferase reporter, luminescence, 16 h; DNA damage induced by 5-fluorouridine | Potency, µM (top dose mostly 46.1 µM), inactives show at the top dose activity change, negative = inhibition, usual class: inhibitors | hit rate 2.3% among 330,000 | AID 504467; note: potency is the fitted concentration of half-maximal effect; % is set by controls: 0 for no effect and ±100 for the full control effect; nearly all actives have a fitted effect of over 55% in size
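HEK293T cells expressing luciferase-tagged ELG1 (2,000/well) received 5-Fluorouridine plus compound or DMSO for 16 hr at 37 °C. Luciferase was read by ONE-Glo luminescence after 30 min at room temperature.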
FLuc modulator: inhibits or activates purified firefly luciferase, miR-21 counter-screen | P08659 | AID 588342 | Potency, µM (doses to about 57.5 µM), without a hit: at the top dose activity change, negative = inhibition, hits mostly inhibitors | purified FLuc, Km substrates, luminescence inhibition | hit rate 6.9% among 360,000;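 note: potency is the fitted concentration of half-maximal effect; plate controls were vehicle for no effect and reference inhibitor for full effect; nearly all actives have a fitted effect of over 55% in size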
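Purified P. pyralis luciferase (10nM final) with 10uM D-luciferin and 10uM ATP (Km levels) in 50mM Tris acetate pH 7.5, 10mM Mg acetate, 0.01% Tween-20, 0.05% BSA; qHTS 6-point titration, ~60 µM downward; luminescence read.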
Gal4-VP16 FLuc: inhibits Gal4-VP16 luciferase reporter, ROR gamma counter-screen. Drosophila S2 Gal4-VP16 UAS-luciferase, luminescence, 20 h. Potency, µM (doses to about 53.6 µM), for the others: top-dose activity, negative = inhibition, hits mostly inhibitors. hit rate 3.5% among 310,000. AID 2546;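 note: Gal4-VP16 expression switched on by copper sulfate through the metallothionein promoter; potency is the fitted concentration of half-maximal effect; % is set by controls: 0 for no effect and ±100 for the full control effect; nearly all actives have a fitted effect of over 50% in size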
NPC1 prom act: NPC1 promoter activation. Huh7 NPC1 promoter luciferase reporter, 24 h. Potency, µM (top dose mostly 9.22 µM), for the others: at the top dose activation, most hits filed as activators. hit rate 2.4% among 320,000. AID 485313;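 note: potency is the fitted concentration of half-maximal effect; % of control where 0% means no effect; nearly all actives have a fitted effect of over 60% in size; reporter is driven by a mutant NPC1 promoter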
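Luminescence read-out of NPC1 promoter-driven luciferase in stably transfected Huh7 cells; compounds delivered in DMSO and left 24 h at 37C, 5% CO2, qHTS titration format.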
Menin-MLL TR inh: displaces Texas Red mutant MLL peptide from human menin; Menin + Texas Red MLL mutant peptide, fluorescence polarization; Potency, µM (titrated, usually from 61.6 µM), without a hit: top-dose FP activity change, negative = inhibition, hits mostly inhibitors; O00255; hit rate 0.23% among 270,000; active = well fitted inhibition curve with a large enough effect in the polarisation, with a control signal flat, not every such curve was filed as active; inconclusive = small, poorly fitted or top-dose-only effect, or effect the other way, or a change in a side signal; inactive = no such curve, though single readings can be large or run the other way; the % refers to the polarisation; note: potency is the fitted concentration of half-maximal effect; % of control where 0% means no effect; many of its hits are not listed in these tables
MBNL1-CUG inh: MBNL1-poly(CUG) RNA binding inhibition; Q9NR56; TR-FRET MBNL1-His/biotin-(CUG)12 binding, 665/545 ratio; Potency, µM (titrated, usually from 57.5 µM), for the others: top-dose activity change, negative = inhibition, actives largely listed as inhibitors; hit rate 0.036% among 280,000; AID 2675; active = well fitted inhibition curve with a large enough effect in the signal ratio, with a control signal flat, not every such curve was filed as active; inconclusive = small, poorly fitted or top-dose-only effect, or effect the other way, or a change in a side signal; inactive = no such curve, though single readings can be large or run the other way; the % refers to the signal ratio; note: potency is the fitted concentration of half-maximal effect; % is set by controls: 0 for no effect and ±100 for the full control effect
Target sequence (Q9NR56 whole entry, looked up): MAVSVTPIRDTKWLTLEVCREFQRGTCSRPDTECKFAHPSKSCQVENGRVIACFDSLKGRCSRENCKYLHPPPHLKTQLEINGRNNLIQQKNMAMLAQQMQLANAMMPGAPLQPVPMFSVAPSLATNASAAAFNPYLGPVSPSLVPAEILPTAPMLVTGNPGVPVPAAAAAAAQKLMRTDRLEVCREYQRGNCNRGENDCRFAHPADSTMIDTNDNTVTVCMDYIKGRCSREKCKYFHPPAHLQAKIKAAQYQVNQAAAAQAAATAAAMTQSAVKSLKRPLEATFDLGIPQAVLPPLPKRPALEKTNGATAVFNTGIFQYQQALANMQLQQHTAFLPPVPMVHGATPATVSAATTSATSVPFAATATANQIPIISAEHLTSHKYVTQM
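MBNL1-His + Biotin-(CUG)12, cpd titration 92 nM–58 uM; Tb anti-His Ab 0.055 ng/ul, SA-XL665 5 nM (final); 60 min RT; ratiometric 665/545 nm, Ex 340 nm; normalized to buffer and full-complex controls.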
RORg inh: ROR gamma (mouse) transcription inhibition; P51450; Drosophila S2 Gal4-RORgamma UAS-luciferase reporter, 20 h; Potency, µM (titrated, usually from 53.6 µM), for the others: at the highest dose activity change, negative = inhibition, most hits filed as inhibitors; hit rate 5.4% among 310,000; AID 2551; note: potency is the fitted concentration of half-maximal effect; % is set by controls: 0 for no effect and ±100 for the full control effect; nearly all actives have a fitted effect of over 60% in size
Target sequence (P51450 whole entry, looked up, the tested form may be a part): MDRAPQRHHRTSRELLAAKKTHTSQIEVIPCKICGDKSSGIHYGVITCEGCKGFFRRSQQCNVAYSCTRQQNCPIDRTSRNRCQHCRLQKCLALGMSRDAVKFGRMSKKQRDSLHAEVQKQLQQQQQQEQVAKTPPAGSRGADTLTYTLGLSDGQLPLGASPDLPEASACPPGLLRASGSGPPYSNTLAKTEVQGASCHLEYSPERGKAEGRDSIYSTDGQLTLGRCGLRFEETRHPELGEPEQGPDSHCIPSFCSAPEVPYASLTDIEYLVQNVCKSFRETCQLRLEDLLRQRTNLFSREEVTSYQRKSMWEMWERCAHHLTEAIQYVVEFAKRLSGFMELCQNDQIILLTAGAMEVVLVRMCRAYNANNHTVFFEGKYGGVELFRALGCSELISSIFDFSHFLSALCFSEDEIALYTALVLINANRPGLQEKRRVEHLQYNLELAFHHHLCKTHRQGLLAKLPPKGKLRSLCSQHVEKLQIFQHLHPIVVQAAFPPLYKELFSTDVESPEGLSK
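Using a luciferase readout, inhibitors were identified by reduced reporter activity in Drosophila cells coexpressing a copper-inducible Gal4–ROR gamma fusion and UAS-driven Photinus luciferase, incubated 20 hr after 700 uM copper sulfate.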
Mito fusion act: inhibitors of mitochondrial division or activators of mitochondrial fusion | AID 485298 | S. cerevisiae fusion-defective mutant growth rescue, CellTiterGlo 48 h | hit rate 0.23% among 320,000 | Potency, µM (highest dose often 46.1 µM), for inactives: at the top dose growth rescue (activation), usual class: activators;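 note: potency is the fitted concentration of half-maximal effect; % of control where 0% means no effect; nearly all actives have a fitted effect of over 45% in size; temperature-sensitive fusion mutants such as fzo1-1 at 37 °C on non-fermentable ethanol glycerol medium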
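Compounds are tested for their ability to restore growth of mitochondrial fusion-defective yeast strains at non-permissive 37C in YPEG medium over 48 hours. Viability is quantified by luciferase luminescence.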
KCNH2 3.1 inh: KCNH2 3.1 (human) potassium channel inhibition; hit rate 0.95% among 340,000; U2OS KCNH2 3.1, thallium flux FluxOr; active compounds read low; activity change, % (tested at about 1.8 µM);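 active = maximum activity change below -70%; inconclusive = maximum activity change from -70% to -50%; inactive = maximum activity change above -50%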;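 note: thallium influx rate constant from kinetic fluorescence after stimulation buffer; % is set by controls: 0 for no effect and ±100 for the full control effect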
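Thallium flux read-out: FluxOr dye with Red40 quencher in HBSS/HEPES, 45 min at RT. Rate constants from kinetic reads were normalized to positive and negative DMSO controls. Cells: U2OS virally expressing the 3.1 isoform.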
* = called active by the depositor; ? = inconclusive; nt = no result given; [ ] = another dose, or the depositor's remark. Unless noted, calls come from the whole dose curve; as a rule, active = well fitted curve in the direction sought with a large enough effect; inconclusive = small, poorly fitted or top-dose-only effect, or another doubt; inactive = no such curve, though single readings can be large; an effect the other way counts as inactive or inconclusive.

The first four entries, to show the layout:
Screens in order – Rab9 prom act	ELG1 repair inh	FLuc modulator	Gal4-VP16 FLuc	NPC1 prom act	Menin-MLL TR inh	MBNL1-CUG inh	RORg inh	Mito fusion act	KCNH2 3.1 inh
- O=C(CCc1nnc(-c2ccccc2)o1)NCc1cc(F)ccc1F
    -5%	10%	-17%	-5%	-1%	2%	-14%	0%	0%	-12
- Cc1nn(-c2ccc(Cl)nn2)c(=O)c2ccccc12
    ?	?	17µM*	6%	18%	1%	-1%	5%	-7%	-4
- Cc1cccc(N(C(=O)Cc2cccs2)C(C(=O)NC2CCCC2)c2ccncc2)c1 (stereo unspecified)
    -2%	-8%	-3%	-14%	2%	-8%	0%	-19%	-4%	17
- COc1cc(Br)c(C(C)NC(=O)c2ccccc2)cc1OC (stereo unspecified)
    -1%	14%	5%	-4%	-5%	1%	-19%	26%	5%	-10

Main list, previewed entries included:
Screens in order – Rab9 prom act	ELG1 repair inh	FLuc modulator	Gal4-VP16 FLuc	NPC1 prom act	Menin-MLL TR inh	MBNL1-CUG inh	RORg inh	Mito fusion act	KCNH2 3.1 inh
- O=C(CCc1nnc(-c2ccccc2)o1)NCc1cc(F)ccc1F
    -5%	10%	-17%	-5%	-1%	2%	-14%	0%	0%	-12
- Cc1nn(-c2ccc(Cl)nn2)c(=O)c2ccccc12
    ?	?	17µM*	6%	18%	1%	-1%	5%	-7%	-4
- Cc1cccc(N(C(=O)Cc2cccs2)C(C(=O)NC2CCCC2)c2ccncc2)c1 (stereo unspecified)
    -2%	-8%	-3%	-14%	2%	-8%	0%	-19%	-4%	17
- COc1cc(Br)c(C(C)NC(=O)c2ccccc2)cc1OC (stereo unspecified)
    -1%	14%	5%	-4%	-5%	1%	-19%	26%	5%	-10
- CC1(C)OC(=O)C(=NNc2ccccc2[N+](=O)[O-])C(=O)O1
    -3%	-7%	-1%	3%	0%	nt	?	-8%	0%	0
- CC1Cc2ccccc2N1Cc1ccc([N+](=O)[O-])cc1 (stereo unspecified)
    0%	-4%	0%	-10%	1%	-9%	11%	12%	-6%	9
- Cc1cc(C)n(CCCNC(=O)c2cc(COc3ccc(C)c(C)c3)on2)n1
    -7%	-10%	-14%	0%	1%	nt	7%	20%	-3%	4
- CCn1c(SCc2nc(-c3cccs3)no2)nnc1-c1c[nH]c2ccccc12
    -3%	?	-5%	1%	-1%	23%	3%	?	-1%	-2
- COc1ccc(NC(=O)[C@H](CCS(C)(=O)=O)N2Cc3ccccc3C2=O)c(OC)c1
    1%	-6%	-1%	0%	-3%	7%	-5%	-2%	0%	-9
- CC(C)[C@H](NC(=O)c1cccc(S(=O)(=O)N2CCCC2)c1)c1nc2ccccc2[nH]1
    0%	4%	1%	3%	-5%	?	4%	0%	1%	1
- COc1ccccc1-c1cc(C(F)(F)F)n2ncc(S(=O)(=O)c3ccccc3)c2n1
    0%	-24%	0%	-9%	-12%	?	9%	-43%	6%	-26
- O=C(c1ccc2c(c1)OCO2)N1CCN(c2ncccn2)CC1
    -7%	-3%	-2%	-2%	-3%	-10%	-17%	18%	-3%	17
- Cc1cc(N)n2nc(-c3ccccc3)c(-c3ccccc3)c2n1
    0%	?	-11%	-4%	-5%	?	-15%	8%	-19%	1
- COc1ccc(N(C(=O)c2snc(C(N)=O)c2N)C(C(=O)NCc2ccccc2)c2ccc(O)cc2)cc1 (stereo unspecified)
    3%	8%	4%	23%	-4%	?	3%	16%	-3%	-29
- [O-]/[N+](=C\c1ccncc1)c1ccccc1
    -4%	5%	?	6%	0%	15%	0%	17%	3%	-3
- Cc1ccc(/C=C2\Oc3cc(OC(=O)N4CCOCC4)ccc3C2=O)cc1
    14%	18%	2.1µM*	3%	8%	-4%	?	1%	3%	-3
- Cc1nnc(NC(=O)COc2ccccc2)s1
    0%	14%	-8%	?	-3%	4%	-1%	-9%	-1%	0
- COC(=O)c1ccc(OCCOc2ccccc2)cc1
    ?	?	15µM*	-7%	15%	24%	-6%	37%	4%	-1
- CCc1nnc(NC(=O)CC23CC4CC(CC(C4)C2)C3)s1
    -1%	27%	0%	?	-1%	0%	5%	?	-4%	-12
- Cc1nnc(Nc2ccc(F)cc2)c2ccccc12
    -2%	5%	-14%	-3%	-4%	-4%	6%	26%	1%	0
- N/C(=N\NC(=O)c1ccc(Cl)cc1)c1cnccn1
    ?	?	?	?	?	nt	8%	?	12%	3
- COc1ccc(C(=O)Nc2cc(C)c(NC(=O)c3ccccn3)cn2)cc1
    ?	?	1.1µM*	-16%	?	-9%	2%	0%	2%	-24
- Cc1ccc(-c2csc(N(CCCN(C)C)C(=O)c3ccco3)n2)cc1
    9%	-7%	6%	3.5µM*	-2%	22%	-20%	0.63µM*	-11%	-49
- CC(=O)Nc1ccc(C(=O)c2ccccc2)cc1
    23%	26%	-7%	-2%	0%	-1%	2%	31%	6%	5
- CCC(=O)Nc1ccc(/C=C(\C(C)=O)C(=O)c2ccccc2)cc1
    18%	?	-1%	-10%	25%	nt	-2%	-32%	-10%	-11
- COc1ccc(NC(=O)C(=O)NCCCn2ccnc2)cc1
    0%	-10%	2%	15%	-1%	7%	-1%	11%	-9%	-1
- O=C(COC(=O)CCc1ccc(S(=O)(=O)N2CCOCC2)cc1)NCc1ccc(Cl)cc1
    1%	-9%	-4%	6%	-1%	12%	-4%	-3%	-1%	0
- COc1ccc(-n2ncc(C(C)NS(=O)(=O)c3ccc(C)s3)c2C)cc1 (stereo unspecified)
    7%	-3%	7%	3%	4%	nt	2%	41%	0%	nt
- O=C(COc1cccc2c1CCN(Cc1ccc(Br)cc1)C2=O)N1CCOCC1
    -1%	7.3µM*	-1%	3%	-4%	-18%	-2%	31%	5%	-24
- Cc1cc(NC(=O)COC(=O)CSCc2ccc(Cl)c(Cl)c2)no1
    2%	0%	2%	-5%	1%	40%[activator]	-5%	-14%	1%	-19
- S=C(NCC1CCCO1)Nc1ccc(Nc2ccccc2)cc1 (stereo unspecified)
    -12%	-14%	2%	?	-4%	14%	4%	?	0%	15
- Cc1n[nH]c(=O)nc1NC1CCCCC1
    -10%	11%	1%	3%	-1%	-1%	-6%	17%	0%	12
- Cc1ccc(/C=C/C(=O)O)cc1S(=O)(=O)N(CCO)CCO
    2%	3%	1%	11%	-2%	-2%	1%[11.5 µM]	5%	nt	9
- Cc1ccc(Cl)cc1NC(=O)NCc1cccnc1
    2%	-5%	-3%	1%	-1%	12%	-2%	-13%	-1%	-34
- Clc1ccccc1CSc1nnc(-c2ccncc2)o1
    ?	?	17µM*	-7%	?	-1%	-12%	-2%	-2%	5
- N#Cc1ccc(COn2nnc3ccccc32)cc1
    27%	?	-16%	23%	13%	-8%	2%	41%	-7%	6
- O=C(O)c1cccc(NC(=O)c2cn(-c3ccccc3)nc2-c2ccc(F)cc2)c1
    22%	17%	4.8µM*	0%	-4%	?	-8%	-18%[1.91 µM]	0%	-18
- COc1ccc(/C=C/C=C2\NC(=S)NC2=O)cc1
    21%	?	?	-25%	8%	12%	nt	-31%	10%	8
- COc1ccc(N(C(=O)c2ccc(S(=O)(=O)N3CCOCC3)cc2)C2C=CS(=O)(=O)C2)cc1 (stereo unspecified)
    0%	4%	1%	-5%	1%	-19%	-9%	-5%	-2%	-1
- CCN(CC)Cc1cc(NC2=NS(=O)(=O)c3ccccc32)ccc1OC(=O)C(C)C
    2%	-1%	6%	-9%	2%	-2%	-6%	-42%	-2%	5
- O=C(NCCc1cccc(Cl)c1)c1cccnc1
    ?	?	?	-5%	?	?	-6%	-8%	4%	16
- CCC(C(=O)Nc1cc(Cl)ccc1OC)c1ccccc1 (stereo unspecified)
    -2%	-1%	2%	-30%	6%	20%	-5%	?	-2%	-5
- C(=N\n1cncn1)/c1ccc(N2CCOCC2)cc1
    -3%	15%	?	-7%	-1%	3%	?	3%	-3%	-7
- COc1cccc(Oc2nccc(N(C)C)c2C#N)c1
    ?	?	?	9%	28%	-16%	-2%	29%	3%	14
- O=C(N/N=C/c1cccc(Br)c1)c1ccc(Br)cc1
    26%	?	?	1%	22%	-26%	3%	?	26%	-18
- CCOC(=O)c1sc(NC(C)=O)nc1C
    -9%	1%	2%	-2%	0%	nt	0%	44%	2%	1

From PubChem

Not all compounds are listed (hit frequency here may not be typical).
